Six1-Eya2 blk = inhibitors of human Six1/Eya2 interaction; AlphaScreen GST-Six1/His-Eya2 binding, biochemical; active compounds read low; control for the full effect not named in the record; activity change, % (test concentration not listed); 360,000 tested, 0.56% active; AID 651725; in the data active = activity change below about -65%; inconclusive = about -30% to -65%; inactive = above about -30%; further: on the % scale 0 is the no-effect control and ±100 the full control effect
Target sequence (O00167 whole entry, looked up): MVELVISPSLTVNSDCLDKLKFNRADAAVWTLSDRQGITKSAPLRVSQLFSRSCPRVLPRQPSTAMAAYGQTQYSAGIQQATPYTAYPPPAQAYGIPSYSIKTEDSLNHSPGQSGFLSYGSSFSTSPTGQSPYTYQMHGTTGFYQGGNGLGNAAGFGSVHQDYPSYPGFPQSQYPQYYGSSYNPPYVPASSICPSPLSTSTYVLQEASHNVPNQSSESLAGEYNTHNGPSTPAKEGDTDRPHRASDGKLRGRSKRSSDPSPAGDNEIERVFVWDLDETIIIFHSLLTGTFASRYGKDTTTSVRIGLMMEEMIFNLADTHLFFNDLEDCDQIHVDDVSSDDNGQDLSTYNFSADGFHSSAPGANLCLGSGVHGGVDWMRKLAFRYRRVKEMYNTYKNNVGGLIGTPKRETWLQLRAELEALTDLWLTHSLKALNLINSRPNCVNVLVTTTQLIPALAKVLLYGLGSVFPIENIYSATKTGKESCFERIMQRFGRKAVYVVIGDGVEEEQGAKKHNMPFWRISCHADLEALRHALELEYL
Target sequence (Q15475 whole entry, looked up): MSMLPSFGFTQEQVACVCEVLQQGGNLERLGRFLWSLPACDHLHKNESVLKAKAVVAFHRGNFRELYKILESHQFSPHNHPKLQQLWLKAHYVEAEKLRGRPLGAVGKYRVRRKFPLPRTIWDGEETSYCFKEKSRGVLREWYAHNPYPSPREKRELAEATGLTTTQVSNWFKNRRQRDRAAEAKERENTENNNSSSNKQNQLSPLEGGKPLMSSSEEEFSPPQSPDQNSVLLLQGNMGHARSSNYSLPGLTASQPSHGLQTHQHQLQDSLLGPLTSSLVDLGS
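AlphaScreen luminescence read after one hour at 37 °C in darkness. Pin-transferred compounds met GST-Six1 and His-Eya2 protein (5X stock 250 nM/500 nM) plus glutathione donor and Ni-chelate acceptor beads (5X, 50 ug/mL).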
TRPV1 potentiator = potentiators of human vanilloid receptor 1 (TRPV1); 320,000 tested, 0.02% active; Q8NER1; TRPV1-expressing cells, Fluo-8 calcium influx, capsaicin EC20 potentiation; host cell line not named in the record; control for the full effect not named in the record; potentiation, % at 8.33 µM; active means potentiation above 80%; inconclusive means 30% to 80%; inactive means below 30%; further: 0% is about no effect
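Cells expressing TRPV1 were dye-loaded with Fluo-8 and read kinetically: 10 s baseline, 3 min after compound (agonist portion), then 2 min after EC20 capsaicin (allosteric enhancer portion). Calcium-bound dye fluorescence at 480/520 nm.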
CtBP-E1A blk = inhibitors of CtBP/E1A interaction | AlphaScreen GST-E1A/His-CtBP binding, 1536-well; active compounds read low; control for the full effect not named in the record | activity change, % (no concentration beside the values) | 340,000 tested, 0.49% active; in the data active means activity change below about -65%; inconclusive means about -30% to -65%; inactive means above about -30%; further: on the % scale 0 is the no-effect control and ±100 the full control effect
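Steps: dispense buffer (Tris pH 8.0, NaCl 300 mM, TCEP 1 mM, BSA, Tween 20); add 5X protein mix (GST-E1A, His-CtBP, 125 nM each); pin 23 nL compound; 2 h at 37 °C, dark; add 5X beads (50 ug/mL); 1 h; read.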
TRPML1 ag = agonists of human TRPML1 channel; Q9GZU1; TRPML1-expressing cells, Ca2+ dye fluorescence, FDSS; host cell line not named in the record; reference of the full effect not given here; activation, % (concentration not given with the values); 410,000 tested, 0.12% active; AID 624414; in the data active = activation above about 50%; inconclusive = about 30% to 50%; inactive = below about 30%; further: 0% is about no effect; the text of the record puts the active cut at 80%
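Agonist activity was taken from a 110 s kinetic Ca2+ dye read on the FDSS after pinning compounds onto TRPML1-DL cells. The cells were seeded at 1,500/well with Tet inducer, incubated about 16 h, then dye-loaded at room temperature.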
TRPML1 blocker = blocks the human TRPML1 channel; Q9GZU1; TRPML1-inducible cells, Ca2+ dye fluorescence, FDSS; active compounds read low; inhibition of EC80 agonist-evoked calcium signal; activity change, negative = inhibition, % (no concentration beside the values); 390,000 tested, 0.02% active; AID 624415; in the data active means activity change below about -50%; inconclusive means about -30% to -50%; inactive means above about -30%;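 further: stimulus is agonist 54-4 at its EC80 concentration; on the % scale 0 is the no-effect control and ±100 the full control effect; compound concentration not given in the record; the text of the record puts the active cut at -80%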
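Calcium fluorescence in TRPML1-DL cells induced overnight with Tet: a 110 s read after compound pin addition, then a 110 s antagonist read after challenge with 54-4 at 4 uM final (EC80).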
D2 PAM = positive allosteric modulators of human D2 dopamine receptor | P14416 | DiscoveRx D2 beta-arrestin cells, luminescence, 90 min; 100% = 57 uM dopamine signal | potentiation, % (no concentration beside the values) | 360,000 tested, 0.23% active; active = potentiation of 50% or more; inconclusive = 30% to 50%; inactive = 30% or less;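 further: compound concentration not given in the record; tested on top of an EC20 dose of dopamine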
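PathHunter D2 cells, attached overnight at 37 deg C, received compound in DMSO plus dopamine at EC20 (50 nM final) for 90 min at 37 deg C. Beta-arrestin recruitment was read as luminescence after 1 h with detection reagent at ambient temperature.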
Starred values were filed as active, the others as inactive; ? = inconclusive; . = not tested or not shown; & = joins results of further samples.

SMILES,Six1-Eya2 blk,TRPV1 potentiator,CtBP-E1A blk,TRPML1 ag,TRPML1 blocker,D2 PAM
COC(=O)c1nc(N)sc1-c1ccc(OC)cc1,-3,0,0,-0.1,-2,25
Cc1cc(S(=O)(=O)NCc2ccccc2)ccc1OCC(=O)Nc1cccc([N+](=O)[O-])c1,0,6,3,0.1,-2,-11
COc1ccc(Br)c2oc(S)cc(=O)c12,-14,0,.,0.3,15,-13
COc1cccc(C(=O)Nc2ccc(Oc3cccc(C(F)(F)F)c3)nc2)c1,-2,2,6,0.9,10,-4
COc1cc2ccccc2cc1C(=O)Nc1ccc(N2CCOCC2)cc1,0,2,-1,-0.6,2,-9
COC(=O)c1c(NC(=O)CSc2nnc(C)c(=O)[nH]2)sc(C)c1C,-11,10,-14,-0.1,4,-2
Cc1cc(C(=O)CCC(=O)N2CCN(S(=O)(=O)c3ccccc3)CC2)c(C)s1,-1,-8,1,-0.5,-8,-7
Cc1cc(C(=O)NC(C)Cc2ccccc2)cc(C)c1[N+](=O)[O-] (centres undefined),-4,-8,0,1.0,3,-3
O=C(COc1ccc(Br)cc1Cl)NNC(=O)c1ccccc1,6,17,.,-0.5,-9,-3
Cc1cccnc1NC(=O)c1ccccc1-c1ccccc1C(=O)Nc1ncccc1C,2,-1,1,0.3,22,-3
O=C(NNC(=S)NC(=O)c1ccco1)c1ccc(F)cc1,3,-8,0,1.0,-19,-10
C#CCOC(=O)CCCN1C(=O)c2cccc3cccc(c23)C1=O,4,.,2,-0.3,-4,3
COc1ccc(-n2ccc3ccccc32)cc1,59,-1,.,0.2,-7,-6
CC(C)(C)c1cc2cccnc2n1Cc1cccc(F)c1,18,.,6,0.0,24,-12
CSC1=NC(C)N2C(SC)=NC(C)N12 (centres undefined),3,4,.,-0.3,2,-22
CCn1c(SCC(=O)N2CCc3ccccc32)nc2c(c1=O)SC(C)C2 (centres undefined),4,3,1,0.1,-3,-4
CCOCCn1c(CN(Cc2ccccc2)Cc2ccccc2)nc2c1c(=O)[nH]c(=O)n2C,-3,-14,-1,1.9,-1,-8
CSCCC(NC(=O)c1ccco1)C(=O)OCC(=O)Nc1ncc(Cl)c(C)c1Cl (centres undefined),-14,2,-5,0.7,4,-11
O=S(=O)(Nc1nccs1)c1cc(Cl)ccc1Cl,-1,?,-3,-0.9,6,-8
O=C(COc1ccc(Cl)cc1Cl)NN1C(=O)C2C3C=CC(C3)C2C1=O (centres undefined),7,14,7,1.2,-6,-2
COc1ccc(OC)c(N(CC(N)=O)S(=O)(=O)c2ccc(OC)c(OC)c2)c1,2,0,3,0.1,-9,1
NS(=O)(=O)c1ccc(CCNCc2cccs2)cc1,2,-2,0,-0.6,5,-10
COCC(C)n1c(SCc2ccc(C(=O)OC)o2)nc2ccccc2c1=O (centres undefined),-9,-19,6,2.2,12,-11
O=C(NCc1nnnn1-c1ccc(F)cc1)c1ccc(S(=O)(=O)N2CCOCC2)cc1,-4,.,1,-0.8,-1,-4
O=C(NCCCN1CCN(CCCNC(=O)c2cccc(Cl)c2)CC1)c1cccc(Cl)c1,5,2,3,0.3,6,-24
Cc1cc(NC(=O)COC(=O)c2ccc(S(=O)(=O)N3CCCc4ccccc43)cc2)no1,1,13,-1,0.7,-2,4
O=C(COC(=O)CSCC(=O)N1CCCCC1)Nc1ccc(Cl)cc1,5,27,2,1.4,4,3
Nn1c(SCC(=O)Nc2ccc(F)cc2)nnc1-c1ccccn1,-27,-30,-20,-0.9,-8,-9
O=C(Nc1ccccc1C(F)(F)F)NC1(C(=O)N2CCOCC2)CCCCC1,-22,.,-3,8.3,-20,-2
Clc1ccccc1N1CCN(Cc2c[nH]c3ccccc23)CC1,-7,.,-21,-0.1,-7,-26
CN(C)CCOC1c2ccccc2C=Cc2ccccc21,-7,.,-5,-0.6,0,-25
C/C(=N\NC(=O)Cc1ccc([N+](=O)[O-])cc1)c1cccnc1,4,-7,-3,0.2,9,-22
COc1cc(NC(=O)c2cc(S(=O)(=O)N3CCCCC3)ccc2N2CCOCC2)cc(OC)c1OC,-7,.,1,-0.1,25,-3
COc1cc(S(=O)(=O)N2CCN(Cc3ccccc3)CC2)ccc1Br,0,-10,-6,2.7,-5,-2
Cc1cc(N2C(=O)C(O)=C(C(=O)c3cc4ccccc4o3)C2c2ccc(Br)cc2)no1 (centres undefined),-5,-1,-19,1.0,4,-21
Cc1ccc(Cl)cc1NC(=O)NCCN1CCCCC1,-9,-4,-1,-0.1,12,-14
Cc1nn(C2CCS(=O)(=O)C2)c(Cl)c1/C=C/C(=O)OCC(=O)Nc1ccccc1[N+](=O)[O-] (centres undefined),-16,-6,3,-1.3,0,6
O=S(=O)([N-]c1nc2ccccc2nc1-[n+]1ccccc1)c1ccccc1,11,11,10,-0.3,-5,-8
O=C(O)/C(=C\c1ccc(-c2ccccc2[N+](=O)[O-])o1)c1ccccc1,-17,-1,.,-1.1,6,-5
CCC(Oc1nc2ccccc2nc1-c1ccccc1NC(C)=O)C(=O)c1ccccc1 (centres undefined),-7,15,-4,2.0,21,21
c1ccc2c(c1)ncn2-c1ccc(-c2ccnc3ncnn23)cc1,-17,-15,-3,0.6,5,1
COc1ccc(NC(=O)CCNS(=O)(=O)c2cccc3nsnc23)cc1OC,-12,13,-5,0.4&-0.3,-3&-10,0
C=CCNC(=S)NNC(=O)c1ccc([N+](=O)[O-])cc1,6,0,.,-0.1,-3,-16
CCC(C)C(=O)N1CCCC(c2nc(-c3cccs3)no2)C1 (centres undefined),2,2,9,-0.3,6,2
CN(C1CCCCC1)S(=O)(=O)c1ccc(C(=O)N2CCN(c3nc4ccccc4s3)CC2)cc1,-1,-3,22,-0.9,4,-1
Cc1ccc(OCCCC(=O)NCc2ccco2)cc1,-2,-8,0,1.1,-9,-12
C=C1CC2C=C(NC(C)=O)CC(C1)C2 (centres undefined),4,-4,2,-0.6,-8,2
Cc1ccc(-c2cc(C(=O)N(C)CC(=O)Nc3ccccc3Br)c3ccccc3n2)o1,3,-9,-1,0.8,9,-14
O=C(COc1ccc(S(=O)(=O)N2CCCC2)cc1)NCc1ccco1,4,3,6,-0.2,1,-7
Cc1ccccc1C(=O)Nc1ccccc1C(=O)NCC(C)C,0,?,8,1.3,-23,0
O=S(=O)(NCC(Nc1ccccc1)c1ccccc1)c1ccc(Cl)cc1 (centres undefined),-10,3,-15,0.9,23,4
CCOC(=O)C1CCN(C=Nc2cc(C)on2)CC1,8,-26,12,0.1,-5,-7
O=C(CSc1nc2ccccc2c(=O)n1Cc1ccco1)Nc1cccc(O)c1,-7,-10,-8,1.3,1,3
CCc1ccccc1NC(=O)CNC(=O)c1cn(Cc2ccccc2)nc1-c1cccnc1,-7,20,-4,0.0,-11,-5
COc1ccc(-n2nnnc2C(c2cc3ccccc3o2)N2CCN(C/C=C/c3ccccc3)CC2)cc1 (centres undefined),-24,.,-23,-0.2,16,-16
COc1ccc(C(=O)NNC2CC(=O)N(Cc3ccc(Cl)cc3)C2=O)cc1OC (centres undefined),-4,-16,-16,0.2,-2,-22
CCO[C@@H]1OC(C(=O)NCc2nc3ccccc3[nH]2)=C[C@H](C(C)(C)C)[C@H]1CCCO,6,.,11,-0.4,-7,-8
CCOC(=O)c1oc2ccccc2c1CSc1nnnn1-c1ccc(OC)cc1,-1,-5,-1,1.2,-18,-1
Cc1cccc(C=CC(=O)c2ccc(Cl)cc2)c1,6,.,2,0.2,5,-18
CSc1ccc(CN2CCC2(C)C(=O)Nc2cccc(NS(C)(=O)=O)c2)cc1 (centres undefined),-11,.,-7,-1.1,.,-11

More structures follow.
SMILES,Six1-Eya2 blk,TRPV1 potentiator,CtBP-E1A blk,TRPML1 ag,TRPML1 blocker,D2 PAM
O=C(Nc1cccc(Cl)c1)N(CCN1CCOCC1)Cc1ccccc1F,-2,9,-9,0.0,-1,-24
Cc1cc(C)n2nc(SCc3nnc(SCc4ccccc4C)s3)nc2n1,?,15,-1,1.7,14,-2
COc1ccc(-c2c(C(=O)O)c(C(=O)O)c3n2CCC3)cc1,-4,17,-9,0.9,47,-9
COc1ccc(-c2cnn(C3CCS(=O)(=O)C3)c2N)cc1 (centres undefined),-4,12,0,-0.6,29,-3
Cc1ccc(-c2nnn(CC(=O)N(CCO)C(C(=O)NC3CCCC3)c3ccc(F)cc3)n2)o1 (centres undefined),-1,-5,7,0.8,9,0
COc1ccc(C(NC(=O)c2ccccc2F)NC(=O)c2ccccc2F)cc1,3,9,-2,-0.2,4,0
COc1ccccc1NCCC(=O)OCC(=O)Nc1ccccc1Cl,-16,.,-2,0.5,79,6
CCOC(=O)Cc1csc(SCC(=O)N(CC(C)C)c2c(N)n(Cc3ccccc3)c(=O)[nH]c2=O)n1,2,4,-5,1.6,1,-3
S=C1COC(c2ccccc2)N1c1ccccc1 (centres undefined),9,0,1,1.2,-13,2
CC(=O)Nc1ccc(OCc2cn(CC(=O)c3ccc(O)cc3)nn2)cc1,2,.,3,-0.5,2,-11
CC[N+]1(CC)CC2CCC(C)(C1)C2(C)C (centres undefined),3,2,-21,0.8,-2,-10
Cc1cc(=O)oc2c(C)c(OC(C)C(=O)NCc3ccccn3)ccc12 (centres undefined),-1,-4,-14,-1.3,8,-4
Cc1ccc(-n2nc3c(N4CCC(C(=O)NCCc5cccs5)CC4)nnc(C)c3c2C)cc1,2,5,-10,1.3,47,-32
CSC1=N/C(=C\c2cccc(F)c2)C(=O)S1,6,-7,1,-0.1,-6,-1
Cc1cc(C)cc(C(=O)N(CCc2ccccc2)C2=CC3CCC(C2)N3C)c1 (centres undefined),20,3,0,1.8,8,-8
COc1ccc(-c2cnc3c(NC(C)=O)cc(-c4ccccc4OC)cn23)cc1OC,-19,.,-27,1.8,.,2
CCCCc1nnc(NC(=O)CSc2nc(O)c(-c3ccccc3)c(=O)[nH]2)s1,-5,3,-1,-0.6,14,-8
CC12CCC(C(=O)Nc3nccs3)(OC1=O)C2(C)C (centres undefined),-1,-1,4,-0.3,3,-12

6 compounds drawn at random from the list so far:
SMILES,Six1-Eya2 blk,TRPV1 potentiator,CtBP-E1A blk,TRPML1 ag,TRPML1 blocker,D2 PAM
CCCCc1nnc(NC(=O)CSc2nc(O)c(-c3ccccc3)c(=O)[nH]2)s1,-5,3,-1,-0.6,14,-8
CC(=O)Nc1ccc(OCc2cn(CC(=O)c3ccc(O)cc3)nn2)cc1,2,.,3,-0.5,2,-11
O=C(Nc1cccc(Cl)c1)N(CCN1CCOCC1)Cc1ccccc1F,-2,9,-9,0.0,-1,-24
COc1ccccc1NCCC(=O)OCC(=O)Nc1ccccc1Cl,-16,.,-2,0.5,79,6
COc1ccc(-c2c(C(=O)O)c(C(=O)O)c3n2CCC3)cc1,-4,17,-9,0.9,47,-9
CCOC(=O)Cc1csc(SCC(=O)N(CC(C)C)c2c(N)n(Cc3ccccc3)c(=O)[nH]c2=O)n1,2,4,-5,1.6,1,-3

Screens from PubChem.
